# Bioassay records (PubChem)
# Mtb hypoxia rep = inhibitors of hypoxia-regulated fluorescent reporter in Mycobacterium tuberculosis; fluorescence inhibition, % (concentration not given with the values); M. tuberculosis hypoxia-regulated fluorescent reporter, fluorescence; actives 0.1% (n = 300,000);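 active means 35 to 45% if threefold the growth effect, above 45% if 1.5-fold the growth effect; inactive means the rest, general growth blockers included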;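 further: wells of about 50 µL received 100 nL stock; 0% = vehicle wells and 100% = reference inhibitor wells; whole bacteria with a GFP reporter of the hypoxia response; strong numbers were not always called active; many hits fall short of the cut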
# Bead autofluor = counter-screen for toxin protease inhibitors: compound fluorescence | compound autofluorescence counterscreen, microsphere flow cytometry; hits give high values | fluorescence intensity (no concentration beside the values) | actives 3.1% (n = 360,000);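 active means at least 3 SD above the mean of all compounds, about 16000 in these data; inconclusive means too few beads counted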;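 further: 100 nL of 1 mM stock went into each well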
# Sa RN4220 lethal = kills Staphylococcus aureus RN4220; S. aureus RN4220 growth, OD600, 16 h; inhibition, % (no concentration beside the values); actives 0.33% (n = 330,000); AID 1259311;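 active means z-score of -3 or lower and OD600 up to 0.18 on both plates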;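 further: plate controls were untreated cells for no effect and reference antibiotic for full effect; stock transfer was 100 nL into about 80 µL; one replicate is shown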
# Sa ugtP lethal = compounds lethal to S. aureus RN4220 ugtP deletion mutant; OD600 growth, 16 h; some inactives read as strong as hits; growth inhibition, % (test concentration not listed); actives 0.54% (n = 330,000); AID 1259309;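 active means z-score under -3 and OD600 up to 0.15 on both plates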;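 further: plate controls were untreated wells for no effect and antibiotic for full effect; wells of about 80 µL received 100 nL stock; the first replicate is given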
# PrP UTR inh = inhibition of PrP 5' UTR reporter expression | cell-based PrP 5' UTR mRNA reporter, plate reader | inhibition, % (concentration not given with the values) | actives 0.35% (n = 340,000) | AID 488862;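 active means every replicate at 50% or more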;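 further: 0 = median of the neutral control wells; tested in H4 reporter cells; numbers are from one replicate; inactives centre near -14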
# BJeLR lethal = BJeLR cell viability loss | AID 1554 | actives 0.17% (n = 300,000) | inhibition, % (no concentration beside the values) | BJeLR (HRASV12) viability, CellTiter-Glo ATP luminescence, 48 h; reference of the scale not given here;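 active means replicate mean above 50%; inconclusive means above 50% but judged a plate artefact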;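 further: 50 nL library stock added to about 25 µL; numbers are from one replicate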
# Mtb hypoxia rep growth = further read-out of Mtb hypoxia rep, marked with its call; growth inhibition, %; measured here: M. tuberculosis growth (absorbance);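 0% = vehicle and 100% = reference antibiotic; read after six days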
# Active calls of the source: *; ? = inconclusive; / = no result given. Random draw from the library; about 4% have a hit in one of these screens.
SMILES,Mtb hypoxia rep,Mtb hypoxia rep growth,Bead autofluor,Sa RN4220 lethal,Sa ugtP lethal,PrP UTR inh,BJeLR lethal
CCOC(=O)c1ccc2c(c1)nc(SCC(=O)c1cc3ccccc3o1)n2CC,7,10,3421,1.8,-22,-18,-4
CC(=NNC(=O)c1ccc(C)cc1C)c1ccc(-n2ccnc2)cc1,9,7,/,6.9,5,/,/
COc1ccc(NC(=O)Nc2ccc(C)cc2Br)c(OC)c1,10,0,3631,8.0,4,-20,0
O=C(NC1CCN(C(=O)N2c3ccccc3Sc3ccccc32)CC1)c1ccco1,2,8,4724,4.2,-3,12,1
O=C(CSc1nnc(-c2ccccc2)n1CC1CCCO1)N1CCCC1 (stereo not drawn),10,-3,3369,1.9,9,-27,-1
CCOC(=O)CNC(=O)N(CCOC)CC1CCCN(C2Cc3ccccc3C2)C1 (stereo not drawn),-3,-2,3178,2.1,7,-19,-8
COc1ccc(OCC(O)CN(CCO)CC(O)Cn2ccc3ccccc32)cc1 (stereo not drawn),2,4,2044,6.9,-4,-5,5
CCOC(=O)c1nc(Nc2ccc(N3CCC(C)CC3)cc2)c2ccccc2n1,1,4,5330,2.7,-2,-28,1
CCN(C(=O)CSc1nc2nc(C)cc(C)n2n1)C1CCS(=O)(=O)C1 (stereo not drawn),13,-3,3478,0.6,-72,-24,-1
O=C(Cn1nnc2ccccc2c1=O)NCCc1ccc(F)cc1,-10,3,/,-6.0,-2,/,-6
O=C(COc1cccc(F)c1)NNC(=O)c1cccc(-n2cccc2)c1,7,0,5244,1.1,-6,-34,-1
COc1ccc(OC)c(CN(CCN2CCOCC2)S(=O)(=O)c2ccc(NC(C)=O)cc2)c1,-5,1,3372,-3.6,-3,/,-2
CCOC(=O)c1sc(=S)n(-c2ccccc2Cl)c1C,-4,11,/,-0.2,13,0,-11
Cc1ccccc1C(=O)NC(=S)Nc1sc2c(c1C#N)CCCC2,/,/,2147,3.5,12,-4,-5
CCN(C(=O)CSc1nnc(-c2ccc(F)cc2)n1C)C1CCS(=O)(=O)C1 (stereo not drawn),-4,9,3545,-2.9,-1,-3,/

# Looked up above:
# In Sa RN4220 lethal, CCN(C(=O)CSc1nnc(-c2ccc(F)cc2)n1C)C1CCS(=O)(=O)C1 (stereo not drawn) reads -2.9
# In BJeLR lethal, CCOC(=O)c1sc(=S)n(-c2ccccc2Cl)c1C reads -11

# Additional records follow.
SMILES,Mtb hypoxia rep,Mtb hypoxia rep growth,Bead autofluor,Sa RN4220 lethal,Sa ugtP lethal,PrP UTR inh,BJeLR lethal
Cc1nn(C)cc1NC(=O)c1ccc(Br)o1,1,3,2326,2.1,10,-9,-2
COCCNS(=O)(=O)c1ccc(-c2ccc(C)cc2)cc1,77*,49*,11333,1.6,0,/,-4
CC1CC(C)CN(S(=O)(=O)c2ccc(C(=O)Nc3nnc(C4CC4)o3)cc2)C1 (stereo not drawn),10,11,4390,46,28,-5,9
Cc1cc(=O)c2c(C)nn(-c3ccccc3)c2[nH]1,/,/,2543,-1.1,-2,-3,-7
Cc1ccc(C(O)c2nc3ccccc3n2C(C)C)cc1 (stereo not drawn),3,0,2887,0.9,-5,-18,-4
OCCCn1c(CCNc2nc(-c3ccc(F)cc3)cs2)nc2cc(C(F)(F)F)ccc21,-3,1,4067,-3.8,7,-26,-2
Cc1ccc(C(=O)N(NC2=NS(=O)(=O)c3ccccc32)S(=O)(=O)c2ccc(C)cc2)cc1,/,/,2729,2.0,2,-21,-9
O=C(NCc1cccnc1)c1noc2c1CCCCC2,1,-3,10589,3.1,1,2,2
Cc1ccsc1C=NNC(=O)c1ccc2c(c1)OCO2,-1,-2,/,11,-7,/,/
COc1cccc(CNC(=O)CCNC(=O)Cn2ccc3ccccc3c2=O)c1,8,2,8520,3.3,-6,-21,-13
Cc1cccc(NC(=O)C2CCN(S(=O)(=O)c3ccc4c(c3)NC(=O)CO4)CC2)c1C,2,-6,5228,0.1,1,-16,-4
COc1ccc(N2C(=O)C3ON(C4SC(=S)N(C)C4(C)C)C(c4ccc([N+](=O)[O-])cc4)C3C2=O)cc1 (stereo not drawn),-7,-6,4482,-1.6,-6,-18,-10
CCC1=C(OC(=O)N(CC)CC)N2C(=O)OC(=NCC3CC3)[C@]2(Cc2ccccc2)C2C1=CCC1C(=O)NC(=O)C12 (stereo partly drawn),2,3,/,6.8,2,/,/
COc1ccc(S(=O)(=O)N2CCN(C(=O)COc3ccccc3)CC2)cc1,3,0,3395,4.6,6,-18,-3
CC(C)(C)NC(=O)CCN(/N=C/c1ccccc1F)C1=NS(=O)(=O)c2ccccc21,/,/,5323,/,/,-21,-28
COC(=O)CNC(=O)C1CCC(CNS(=O)(=O)c2cccc3nsnc23)CC1 (stereo not drawn),5,4,5970,3.3,6,-5,0
COc1ccc(/C=N/S(=O)(=O)c2cccs2)cc1,/,/,9867,/,/,-12,1
CC1C(=O)OC(c2ccc(Br)cc2)C(C)(C)C1=O (stereo not drawn),-3,8,3712,1.1,1,-9,-14
Cc1cc2ncn(S(=O)(=O)N(C)C)c2cc1C,21,11,10355,5.6,1,-36,-7
CCCN(CCC)c1ccc(/C=N/NC(=O)CN2CCOCC2)cc1,/,/,4205,/,/,-12,-1
O=S(=O)(NC(=NCc1ccccc1)c1ccccc1)c1ccccc1,-1,6,3555,3.1,1,-20,7
COc1cc(NS(=O)(=O)c2ccc3c(c2)C(C)(C)C(=O)N3C)cc(OC)c1,/,/,5645,3.3,2,1,-8
COc1ccc(CNC(=O)Cn2cnc3c(SC)nc(N)nc32)cc1,-7,-12,3355,3.3,-6,42,/
CCc1ccc(-c2csc3ncn(Cc4ccc(C(=O)O)cc4)c(=O)c23)cc1,1,7,4667,1.1,9,-21,-3
CCOc1ccc(NC(=O)CC2C(=O)N(CC)C(=S)N2CCNC(C)=O)cc1 (stereo not drawn),2,-7,2490,-2.1,5,-21,0
CC(C)C(=O)N1CCC(CN=CC2=C(O)CC(C)(C)CC2=O)CC1,5,8,?,9.1,4,-25,-11
CC(C)CNC(=O)[C@H](Cc1ccccc1)NC(=O)c1ccco1,/,/,/,5.2,3,-10,0
Cc1c(Cl)cccc1NC(=O)CNCc1ccccc1F,15,0,8315,5.7,-6,-14,15
Clc1ccc(-c2nnc(-c3ccccc3)c(-c3ccccc3)n2)cc1,14,3,/,-7.9,31,-15,5
CCOc1ccc(S(=O)(=O)NNC(=O)c2cc3ccccc3o2)cc1,9,4,1822,2.7,1,42,-3
CC1CC(OC(=O)c2ccccc2)CC(C)N1C (stereo not drawn),10,5,2086,4.4,0,-12,2
COc1ccc(CNc2cc(C)nc3ncnn23)c(OC)c1,-4,-1,22962*,-4.1,-2,10,0
Cc1ccc(-c2cn(S(=O)(=O)c3cccc4nsnc34)nc2N)cc1,/,/,3545,-1.7,11,-13,-7
O=C(C1=COCCO1)N(Cc1nnc(-c2ccc(Cl)cc2)o1)C1CC1,-5,0,?,2.9,1,-14,0
Cc1cc2nc3c(=O)n(C4CCCCC4)c(=O)[nH]c3nc2cc1N,-17,2,2715,1.5,1,-27,/
O=C(CCC(=O)Nc1ccccc1)N/N=C/c1ccccc1F,/,/,2559,/,/,-23,-3
O=C(Nc1ccc(Oc2ccsc2C(=O)O)cc1)c1ccccc1F,19,14,3474,-0.3,-6,-24,-2
Cc1cc(CN(C)C(=O)c2ccc(OC3CCN(S(=O)(=O)N(C)C)CC3)cc2)n[nH]1,0,0,5226,3.1,14,-10,11
CCOC(=O)N1CCN(c2nc(N(c3ccccc3)c3ccccc3)nc(-n3ccnc3)n2)CC1,10,5,/,1.0,7,/,3
Cn1c(=O)[nH]c(=O)c2c1nc(N1CCCCCC1)n2Cc1cccc2ccccc12,5,1,2460,1.8,-6,-5,-11
COc1ccc([N+](=O)[O-])cc1NC(=O)C1CCCCC1C(=O)O (stereo not drawn),9,-7,9499,1.1,2,-23,1
Cc1ccc(NC(=O)CSc2nc3ncc(Cl)cc3[nH]2)c(C)c1,1,-5,5749,3.1,3,-12,-2
Cn1c(CN2CCOCC2)nc2cc(NC(=O)c3ccc(F)cc3)ccc21,16,6,11593,2.3,4,-14,2
Cc1ccc(C(=O)Nc2ccc(O)cc2C(=O)O)cc1C,3,9,10825,0.6,1,-4,-5
Cc1cc(-c2ccco2)n(CC(=O)O)n1,12,11,5568,6.1,-2,-39,4

# Entries of single compounds, quoted from the list:
# Results for O=C(C1=COCCO1)N(Cc1nnc(-c2ccc(Cl)cc2)o1)C1CC1 : Mtb hypoxia rep: -5; Mtb hypoxia rep growth: 0; Bead autofluor: ?; Sa RN4220 lethal: 2.9; Sa ugtP lethal: 1; PrP UTR inh: -14; BJeLR lethal: 0
# Results for Cc1cc(CN(C)C(=O)c2ccc(OC3CCN(S(=O)(=O)N(C)C)CC3)cc2)n[nH]1 : Mtb hypoxia rep: 0; Mtb hypoxia rep growth: 0; Bead autofluor: 5226; Sa RN4220 lethal: 3.1; Sa ugtP lethal: 14; PrP UTR inh: -10; BJeLR lethal: 11

# The listing continues.
SMILES,Mtb hypoxia rep,Mtb hypoxia rep growth,Bead autofluor,Sa RN4220 lethal,Sa ugtP lethal,PrP UTR inh,BJeLR lethal
O=C(/C=C1\SC(=O)NC1=O)Nc1ccc(C(=O)O)cc1,17,11,4302,4.6,-1,-18,-4
Cc1c(Cc2ccccc2)c(=O)oc2cc(O)cc(O)c12,10,15,3453,-0.2,-24,-2,-16
O=C(OC1CO[C@H]2O[C@@H]1[C@H](OC(=O)c1ccccc1)[C@H]2OC(=O)c1ccccc1)c1ccccc1 (stereo partly drawn),14,6,3809,-1.8,49,/,0
COc1cc(CCC(=O)OCC(=O)Nc2c(F)cccc2F)cc(OC)c1OC,-2,-8,6171,3.7,4,-12,-3
COc1ccccc1N(CCC#N)C(=S)Nc1ccc(S(=O)(=O)N2CCOCC2)cc1,8,3,3544,-0.8,0,-18,/
CCOc1ccc(CNC(=O)CS(=O)(=O)Cc2nc(-c3ccc(OC)cc3)oc2C)cc1,4,12,5917,-13,-4,-27,-8
Cc1ccc(-c2nc3ccccc3[nH]2)cn1,0,6,3614,5.6,-1,-39,10
CC1=C(C(=O)Nc2ccccc2)C(c2cc(CN3CCOCC3)cs2)C2=C(CCCC2=O)N1 (stereo not drawn),-4,1,3435,2.7,5,-22,8
CC(=O)c1ccc(NC(=O)N2CCN(c3ccc(C)cc3)C(C)C2)cc1 (stereo not drawn),-3,12,4404,-0.1,2,-23,/
C=CCN1N=C(/C=C/c2ccccc2)CCC1=O,0,8,2047,-0.9,7,-16,-5
CN(C)S(=O)(=O)c1cccc(NC(=S)NCc2ccco2)c1,-2,-7,4440,5.0,2,4,-1
Cc1ccc(S(=O)(=O)N2CCCN(S(=O)(=O)c3ccc4ccccc4c3)CC2)cc1,4,2,5439,-4.4,1,-15,-11
O=C(c1ccc(NS(=O)(=O)c2ccc3[nH]c(=O)[nH]c3c2)cc1)N1CCN(c2ccccc2)CC1,5,-2,3918,4.5,2,-23,/
O=C(CSc1n[nH]c(-c2ccncc2)n1)Nc1ccccn1,/,/,2091,1.2,-1,-19,-4
Cc1ccc(C)c(N(C(=O)Cn2nnc(-c3cccs3)n2)C(C(=O)NC2CCCC2)c2ccncc2)c1 (stereo not drawn),9,8,24211*,6.5,3,-18,9
O=C1NCCCC1=NNc1cc(F)ccc1F,-4,4,/,4.0,-1,/,/
O=C(CC1SC(N2CCCCC2)=NC1=O)Nc1cccc(C(=O)Nc2ncccc2O)c1 (stereo not drawn),11,7,5746,4.4,6,3,3
CCS(=O)(=O)N1CCC(C(=O)Oc2ccc(C)c(C)c2)CC1,3,0,3968,2.6,4,-22,7
CCOc1ccc(CNC(=O)CCC(=O)n2ncc3ccc(Cl)cc32)cc1,3,-2,5453,6.1,2,-9,6
CCOc1ccc(NC(=S)NC23CC4CC(CC(C4)C2)C3)cc1,/,/,3461,/,/,4,-1
Cc1cc(NC(=O)CSc2nc3c(c(=O)n2-c2ccccc2)SC(C)C3)no1 (stereo not drawn),-1,2,5604,17,5,-12,1
COc1cc2c(cc1NC(=O)COC(=O)/C=C/c1ccccc1)oc1ccccc12,8,-3,2164,3.1,-3,-30,6
O=C(Cn1cc(C(F)(F)F)cc(Cl)c1=O)NCCc1ccc(Cl)cc1Cl,-4,18,4747,-1.3,-6,-2,-4
